# Rango complex inh – qHTS Assay for Inhibitors of Rango (Ran-regulated importin-beta cargo) - Importin beta complex formation; Importin subunit beta-1 (Homo sapiens), Q14974; Rango CFP/YFP FRET sensor + importin beta, 45 min; Potency, µM (doses to about 92.2 µM), for the others: at the top dose inhibition of complex formation; actives 0.031% (n = 340,000); AID 540263, 2011; active = rising FRET ratio curve, often small or poorly fitted; inconclusive = mostly compound fluorescence or quenching in the first reads; inactive = flat curves in all reads;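 note: potency is the fitted concentration of half-maximal effect; 0% = DMSO wells and 100% = buffer wells lacking importin beta; nearly all actives have a fitted effect of over 15% in size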
#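 FRET biosensor (snurportin 1 IBB flanked by EYFP and cerulean), 50 nM, with compound 5 min, then 0.125 microM importin beta in PBS, 1 mM DTT, 0.02% Tween-20, 0.1% BSA. CFP/YFP ratio read after 45 min at room temperature; pre-read flags interference.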
# Rango dissoc inh – qHTS Assay for Inhibitors of RanGTP induced Rango (Ran-regulated importin-beta cargo) - Importin beta complex dissociation; Snurportin-1 (Homo sapiens) + GTP-binding nuclear protein Ran (Homo sapiens) + Importin …; Biochemical FRET Rango-importin beta, RanGTP-induced dissociation; Potency, µM (top dose mostly 46.1 µM), for the others: at the top dose activity change, negative = inhibition; actives 0.071% (n = 340,000); AID 540253, 2011; active means falling FRET ratio curve, often poorly fitted, with flat reads before Ran was added; inconclusive means other falling curves, or compound fluorescence or quenching; inactive means flat or rising ratio curve;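 note: potency is the fitted concentration of half-maximal effect; % of control where 0% means no effect; nearly all actives have a fitted effect of over 45% in size; -100% = wells without RanGTP and RCC1; the record marks most hits as doubtful in a second field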
#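 Two FRET readings bracket the reaction: one 5 min after compound meets Rango–importin beta, another 45 min after RanGTP-RCC1 (0.6 uM Ran, 0.2 uM RCC1, 2 mM GTP) is added. Only the second defines inhibition.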
# GLA inh pH 4.5 – qHTS Assay for Inhibitors of Human alpha-Galactosidase at pH 4.5. Alpha-galactosidase A (Homo sapiens), P06280. purified enzyme, 4-MU-alpha-Gal fluorescence, pH 4.5. activity change, negative = inhibition, % at 105 µM. 230,000 tested, under 10 active. AID 1467, 2008; inconclusive = small, poorly fitted or top-dose-only inhibition, or a rising curve; inactive = flat fitted curve, though single readings scatter; no compound was filed as active;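 note: 0% = full activity with enzyme and -100% = basal without enzyme; dose as in the result columns while the protocol names 77 µM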
# Target sequence (P06280 whole entry, looked up): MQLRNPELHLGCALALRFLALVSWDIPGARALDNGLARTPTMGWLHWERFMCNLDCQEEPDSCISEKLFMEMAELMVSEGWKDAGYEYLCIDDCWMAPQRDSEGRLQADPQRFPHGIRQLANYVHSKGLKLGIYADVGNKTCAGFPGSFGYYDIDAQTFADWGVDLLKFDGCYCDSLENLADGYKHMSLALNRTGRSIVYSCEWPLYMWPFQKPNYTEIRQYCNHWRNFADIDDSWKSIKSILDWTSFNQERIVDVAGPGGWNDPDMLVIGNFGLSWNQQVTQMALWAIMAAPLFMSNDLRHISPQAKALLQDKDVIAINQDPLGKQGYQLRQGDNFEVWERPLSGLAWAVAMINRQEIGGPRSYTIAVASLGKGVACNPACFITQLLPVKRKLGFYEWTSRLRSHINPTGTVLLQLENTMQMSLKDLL
# miR-21 FLuc – qHTS Assay for Modulators of miRNAs and/orActivators of miR-21; 340,000 tested, under 10 active; Potency, µM (highest dose often 38.3 µM), inactives show top-dose reporter change, positive = more light; HeLa miR-21 FLuc reporter, luciferase, 48 h; active = well fitted rising curve with a large enough effect; inconclusive = small, poorly fitted or top-dose-only effect; inactive = no such curve, though single readings can be large or run the other way;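 note: % of control where 0% means no effect; miR-21 action dims this reporter so a rising signal means less miR-21 action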
#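 HeLa miR-21-FLuc reporter line, endogenous miR-21; 2000 cells/well in DMEM/10% FBS; compound titration up to ~40uM final, 48 h, 37 degree Celsius; luciferase detection reagent, 15 min lysis, CCD luminescence.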
# Starred values were filed as active, the others as inactive; ? = inconclusive; nt = no result given.
miR-21 FLuc,Rango dissoc inh,GLA inh pH 4.5,Rango complex inh,mol
-2.0%,15.3%,3.4,-0.1%,Cc1ccc(OCC(=O)NCC(=O)n2nc(C)cc2C)cc1
-0.7%,-8.9%,-0.1,1.3%,Cc1occc1C(=O)N1CCN(c2ncccn2)CC1
-1.0%,12.6%,3.0,-3.4%,Cc1cccc(N(CC(=O)NCC2CCCO2)C(=O)CCC(=O)Nc2cc(C)on2)c1 (stereo not drawn)
-7.5%,-1.9%,nt,1.9%,Cc1ccc2oc(=O)n(Cc3ccccc3)c2c1
-9.2%,2.1%,-8.4,-0.3%,O=C(NN=C1CCCCCC1)c1ccc2c(c1)OCO2
nt,-7.2%,nt,8.1%,Cc1cccc(-c2c3c(=O)n(C)c(=O)n(C)c3c3nnc4ccccc4n23)c1
-1.7%,0.5%,-3.0,0.1%,CCOC(=O)Cc1nnc(NC(=O)CSc2nnc3c(n2)[nH]c2ccccc23)s1
-0.7%,2.8%,8.6,0.9%,O=C1CC(C(=O)Nc2ccccc2C(=O)O)C(c2ccccc2)O1 (stereo not drawn)
-0.2%,-2.3%,nt,-2.5%,c1ccc2c(c1)nc(-c1ccncc1)n2CCNc1nc(CN2CCCCC2)cs1
?,15.2%,15.1,-0.8%,Cn1c(=NC(=O)CCl)sc2ccccc21
nt,-17.4%,nt,-0.8%,Cc1ccc(NC(=O)Cc2ccccc2)cc1S(=O)(=O)N1CCOCC1
-2.2%,-0.5%,nt,-0.8%,COc1ccccc1CNC(=O)CCc1nnc2ccc(NCCCN3CCCC3=O)nn12
4.9%,?,nt,?,N#CC1=C(N)Oc2cc(O)c(Cl)cc2C1c1ccccc1F (stereo not drawn)
-3.4%,8.0%,nt,4.5%,CCOC(=O)N1CCN(C(=O)Cn2nc(C)n3nc(-c4ccc(CC)cc4)cc3c2=O)CC1
14.6%,-5.5%,-13.6,-1.4%,COc1cc(CNCCc2ccccc2)cc(Br)c1OCC(=O)Nc1ccccc1C
-1.9%,-19.4%,?,0.0%,CC(/C=C1\SC(=S)N(NC(=O)c2ccncc2)C1=O)=C\c1ccccc1
1.6%,5.4%,nt,1.5%,COc1ccc(C)cc1-n1c(SCC(=O)NCC2CCCO2)nc2c([nH]c3ccccc32)c1=O (stereo not drawn)
-10.8%,0.9%,-1.3,3.3%,O=C(CC1SC(=Nc2ccc(OC(F)F)cc2)N(CCC2=CCCCC2)C1=O)Nc1ccccc1F (stereo not drawn)
0.2%,7.1%,3.2,2.2%,Cc1sc(NC(=O)C2C3CCC(O3)C2C(=O)O)c(C(=O)OC(C)C)c1-c1ccc(Cl)cc1 (stereo not drawn)
-34.2%,0.5%,nt,0.4%,Cc1ccccc1NC(=S)NNC(=O)c1ccco1
-17.0%,-4.5%,2.7,0.2%,CCc1nnc(NC(=O)CSc2nnc(-c3ccco3)o2)s1
-3.9%,0.9%,6.0,-1.0%,CCOC(=O)C(NC(=O)Nc1ccc(Cl)cn1)(Oc1ccc(F)cc1)C(F)(F)F (stereo not drawn)
-28.6%,9.5%,nt,0.6%,CCN(CC)Cc1c(O)ccc2c(=O)c(-c3ccc(Cl)cc3)coc12
1.3%,-9.6%,6.2,-0.8%,CC1(C)CC(=O)C(C=Nc2ccc(N)cc2)=C(O)C1
5.3%,?,nt,-0.2%,COc1cc(C(=O)Oc2cc(N)n(S(=O)(=O)c3ccc(F)cc3)n2)cc(OC)c1OC
29.9%,-10.2%,-5.2,-1.8%,Cc1ccc(C2(c3ccc(C)cc3)CC2C(=O)Nc2ccc([N+](=O)[O-])cc2O)cc1 (stereo not drawn)
-12.4%,18.1%,1.2,-2.9%,COc1ccc(/C=N/OCC(=O)Nc2cc(C)on2)cc1OC
1.9%,1.1%,nt,-0.9%,O=C(NCC(O)c1ccc([N+](=O)[O-])cc1)C(c1ccccc1)c1ccccc1 (stereo not drawn)
-27.5%,0.2%,4.5,0.7%,CC(=O)c1cccc(NC(=O)CCC2CCCC2)c1
13.3%,0.3%,nt,-1.0%,CCN(CC(=O)NCc1ccc(F)cc1)C(=O)CN1CCN(c2cc(Cl)ccc2C)CC1
-7.2%,8.1%,-2.8,-3.8%,Cc1oc(-c2cccc(Cl)c2)nc1CN1CCC(C(=O)NCc2cccnc2)CC1
-1.1%,8.8%,-9.7,2.9%,CCC(=O)N1c2ccc(C)cc2C2=NNC(=S)NC21O (stereo not drawn)
1.2%,5.4%,4.3,1.0%,CCCCn1nc2cc(C(=O)NCCCCc3ccccc3)ccc2c1OCC
-10.2%,-2.6%,-8.0,-2.3%,COc1ccc(/C=N/NC(=O)c2ccccc2O)cc1CSc1ccccn1
-8.6%,11.1%,-4.6,4.5%,FC(F)(F)c1cc(-c2ccc3c(c2)OCO3)nc(NCc2ccco2)n1
-0.9%,8.4%,0.9,-3.2%,O=C(CCSc1nnc(-c2ccncc2)o1)Nc1cccc(Cl)c1
nt,-12.0%,nt,-1.1%,O=C(C[C@H]1C[C@H](C(=O)N2CCCCC2)[C@@]2(CCc3ccccc3)c3[nH]c4ccc(Cl)cc4c3CCN2C1=O)NCCC1=CCCCC1
-30.1%,-3.3%,-1.7,-3.7%,O=C(COC(=O)c1ccccc1Nc1ccc(SC(F)F)cc1)NCc1ccco1
-4.6%,-5.7%,-2.9,3.7%,CSCCOC(=O)C1=C(C)Nc2ccc(C)cc2S1
-1.2%,5.8%,-1.8,-2.8%,Cc1ccc(S(=O)(=O)NCCSc2nnnn2C)cc1

# 4 entries out of the list above, arranged by the value under Rango complex inh, falling.
miR-21 FLuc,Rango dissoc inh,GLA inh pH 4.5,Rango complex inh,mol
-1.1%,8.8%,-9.7,2.9%,CCC(=O)N1c2ccc(C)cc2C2=NNC(=S)NC21O (stereo not drawn)
-27.5%,0.2%,4.5,0.7%,CC(=O)c1cccc(NC(=O)CCC2CCCC2)c1
-9.2%,2.1%,-8.4,-0.3%,O=C(NN=C1CCCCCC1)c1ccc2c(c1)OCO2
nt,-12.0%,nt,-1.1%,O=C(C[C@H]1C[C@H](C(=O)N2CCCCC2)[C@@]2(CCc3ccccc3)c3[nH]c4ccc(Cl)cc4c3CCN2C1=O)NCCC1=CCCCC1

# Carrying on:
miR-21 FLuc,Rango dissoc inh,GLA inh pH 4.5,Rango complex inh,mol
-3.9%,0.5%,0.2,-6.3%,O=C(NCc1cccc(CNC(=O)C(=O)NCc2ccco2)c1)C(=O)NCc1ccco1
-0.5%,-0.3%,-23.1,-0.2%,CC(=O)c1ccccc1NC(=O)CN1C(=O)CS/C1=C\c1nc(-c2ccc(C)cc2)cs1
-41.3%,-1.3%,0.0,4.2%,CC(=O)c1sc(NCCOc2ccc(C)cc2)nc1C
0.1%,-21.6%,0.1,-1.0%,COC(=O)CSC1=C(C#N)C(c2ccc3c(c2)OCO3)C2=C(CCCC2=O)N1 (stereo not drawn)
-4.1%,-3.9%,-0.6,0.6%,Cc1c(N=c2scc(-c3ccccc3)n2C)c(=O)n(-c2ccccc2)n1C
-0.1%,-4.3%,1.9,0.8%,O=C(CSc1nnc2ccccn12)NNC(=O)c1ccc(Br)cc1
-19.8%,28.4%,-11.3,-0.8%,CCOc1ccc(C2C(C(=O)c3ccco3)=C(O)C(=O)N2CCCn2ccnc2)cc1 (stereo not drawn)
nt,-13.3%,nt,-2.0%,CCOc1ccccc1NC(=O)CSc1nc(=O)n(Cc2ccncc2)c2c1CCC2
-18.4%,-1.4%,-10.4,-1.3%,O=C(CSc1ncnc2c(-c3ccc(Cl)cc3)nsc12)c1ccccc1
-8.8%,-3.2%,-0.5,0.6%,N/C(=N\OC(=O)N1c2ccccc2Sc2ccccc21)c1ccccc1
0.4%,-0.2%,-3.1,2.3%,COc1ccc(OC)c(S(=O)(=O)Nc2ccc(C(N)=O)cc2)c1
nt,-24.0%,nt,5.7%,O=C(COc1ccccc1Br)N1CCNC1=O
-5.0%,3.6%,nt,-1.4%,CC1(C)Cc2c(sc(NC(=O)C(=O)N3CCCCC3)c2C(N)=O)CO1
-2.7%,13.1%,-7.4,1.2%,O=C(O)c1nn(CCOc2cccc(Cl)c2)c(=O)c2ccccc12
4.4%,23.7%,-2.0,-0.5%,CCOc1ccc(S(=O)(=O)Nc2cccc(C(=O)N3CCN(c4ccc(OC)cc4)CC3)c2)cc1
nt,-11.9%,nt,-0.8%,CCN(C[C@H]1N[C@@](Cc2ccccc2)(C(=O)OC)[C@H]2C(=O)N(C)C(=O)[C@@H]12)C(=O)NC(C)C
nt,-3.2%,nt,1.0%,Cc1ccc(C(=O)NCC(=O)OCn2nnc3ccccc3c2=O)cc1
0.3%,?,2.6,?,O=C(O)CNC(=O)/C(=C\c1ccc2c(c1)OCO2)NC(=O)c1ccc(Br)cc1
-1.4%,41.7%,1.2,-0.3%,N#Cc1ccccc1S(=O)(=O)N1CCN(c2ccc(S(=O)(=O)N3CCOCC3)cn2)CC1
-21.8%,?,nt,?,O=C(O)CCn1c2ccccc2c2nc3ccccc3nc21
0.6%,-1.8%,7.1,0.3%,CCc1c(C)[nH]c2c(C)cccc2c1=O
21.3%,?,4.3,?,CCCc1cc(N2CCN(C(=O)c3ccco3)CC2)n2c(nc3ccccc32)c1C#N
-3.6%,12.0%,-0.1,-2.7%,COc1ccc(S(=O)(=O)NCC(=O)N(CC(=O)NCC2CCCO2)c2ccccc2C)cc1 (stereo not drawn)
-34.6%,-14.2%,-4.2,2.4%,O=C(NC1CCCCC1)C(c1cccs1)N(C(=O)c1ccco1)c1ccc2c(c1)OCCO2 (stereo not drawn)
-13.2%,-10.1%,-6.8,?,Cc1ccccc1N/N=C/c1sc(=O)n(Cc2cccc(C(=O)O)c2)c1Cl
nt,1.4%,nt,-0.5%,O=C(Cc1ccc(NC(=O)C2CCCN(C(=O)CCc3ccccc3)C2)cc1)Nc1cccc(C(=O)N2CCCCC2)c1 (stereo not drawn)
18.9%,-4.9%,4.8,3.4%,CC(=O)Nc1ccc(OCC(O)Cn2c3ccccc3c3ccccc32)cc1 (stereo not drawn)
-2.7%,-8.2%,-7.4,3.7%,O=C(/C=C/c1ccc(Cl)cc1Cl)NCCSCc1ccccc1
-0.1%,-1.2%,9.6,0.6%,O=C1C(C2=NC(C(=O)O)C3C(=O)N(c4ccccc4)C(=O)C23)=C(O)c2ccccc21 (stereo not drawn)
nt,-14.9%,nt,2.7%,Cc1cccc2nc(C(=O)Nc3cccc(C(=O)NC4CC4)c3)cn12
0.6%,2.2%,nt,0.2%,O=C(NCc1ccco1)/C(=C/c1ccc(F)cc1)NC(=O)c1ccccc1
-34.2%,-1.2%,-3.7,-0.1%,C=CCn1c(-c2ccc(OC)cc2)nc2ccccc21
-6.4%,10.1%,1.9,0.4%,O=c1c(-n2cncn2)c[nH]n1-c1cccc(Cl)n1
-3.2%,39.6%,-2.1,-0.5%,Cc1ccc(C(=O)NCC(=O)OCC(=O)Nc2cccc(S(=O)(=O)N3CCCC3)c2)cc1C
-2.7%,-2.0%,nt,?,CCOC(=O)Cn1cc(C(=O)C(=O)N2CCOCC2)c2ccccc21
0.6%,?,-1.4,?,CCOC(=O)c1c(CC(C)C)csc1/N=C/C1=C(O)CCCC1=O
-64.0%,?,nt,?,CSc1ccc(/C=C/C(=O)c2c(O)cc(C)oc2=O)cc1
-2.0%,-4.2%,-1.5,?,CN(C(=O)CSc1nnc2ccccn12)C1CCS(=O)(=O)C1 (stereo not drawn)
-13.3%,21.0%,11.3,3.3%,CC(=O)Oc1oc(-c2ccccc2)nc1C=Nc1ccccc1
-10.6%,0.5%,-8.9,-1.9%,OCC1(Cc2ccccc2)CCN(Cc2cnc(-c3ccc(Cl)cc3)nc2)CC1
-4.9%,0.5%,-1.0,1.5%,CNS(=O)(=O)c1ccc(NC(=O)C2c3ccccc3Oc3ccccc32)cc1
-0.4%,-6.1%,nt,-1.4%,CCNC(=O)C1Cc2cc(S(=O)(=O)N3CCCC3)ccc2N1C(C)=O (stereo not drawn)

# Not all compounds are listed; rates above refer to the full screens.
